# Screens deposited in PubChem by National Center for Advancing Translational Sciences (NCATS).
# HPGD block: qHTS Assay for Inhibitors of HPGD (15-Hydroxyprostaglandin Dehydrogenase) | 4.3% of 150,000 active | Potency, µM, for the others: at the top dose activity change, negative = inhibition, most hits filed as inhibitors | purified HPGD, NADH fluorescence kinetic, PGE2 substrate | AID 894, 2007 | 15-hydroxyprostaglandin dehydrogenase [NAD(+)] (Homo sapiens), P15428; active = well fitted inhibition curve with a large enough effect (not every such curve was filed as active); inconclusive = small, poorly fitted or top-dose-only effect, or another doubt; inactive = no such curve, though single readings can be large or run the other way;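 also: top concentration of the series not given in the record; plate controls included wells without enzyme; inactives centre near -10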
# Target sequence (P15428 whole entry, looked up): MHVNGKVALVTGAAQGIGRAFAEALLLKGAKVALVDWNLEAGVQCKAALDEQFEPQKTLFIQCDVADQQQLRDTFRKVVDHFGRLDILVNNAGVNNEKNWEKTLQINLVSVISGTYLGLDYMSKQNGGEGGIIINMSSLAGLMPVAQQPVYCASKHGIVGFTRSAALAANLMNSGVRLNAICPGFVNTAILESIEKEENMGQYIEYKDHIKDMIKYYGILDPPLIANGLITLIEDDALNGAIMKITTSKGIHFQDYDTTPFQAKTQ
#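 NADH formation kinetics: reaction with 30 uM PGE2 and 1 mM NAD+ (final), 20 nM enzyme, Tris-HCl pH 8 with Tween 20, after 15 min compound preincubation at room temperature. Fluorescence change, last versus first of five reads.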
# * = called active by the depositor; ? = inconclusive; & = joins results of further samples. % is scaled to controls: 0 for no effect and ±100 for the full control effect; potency is read from the fitted curve at half-maximal effect.
SMILES,HPGD block
O=C(Nc1ccc(Br)cc1)c1nn(C23CC4CC(CC(C4)C2)C3)cc1Br,-16%
CN=C=S,-2%
CCCCN1C(=O)NC(=O)C2(Cc3c(nc4ccccn4c3=O)N3CCc4ccccc4C32)C1=O (stereo not given),?
C=CCn1c(=O)c(C=Nc2c(OC)cccc2[N+](=O)[O-])c(O)n(CCCC)c1=O,-14%
COC(=O)C(O)(c1ccc(N(C)C(=O)c2ccc(Cl)c(Cl)c2)cc1)C(F)(F)F (stereo not given),-9%
Nc1nnnn1CCO,-4%
CNC[C@H](O)c1ccc(O)cc1,3%
CCOC(=O)c1c(-c2ccccc2)oc2ccc(OC(=O)N(C)C)cc12,?
CCOC(=O)C1C(=O)NC23CCCC2C1c1ccccc1O3 (stereo not given),-5%
COC(=O)c1ccccc1OP1(=O)COc2ccccc2OC1,-22%
CCN1C[C@]2(C)CC[C@H](OC)[C@@]34[C@@H]2[C@H](OC(C)=O)[C@]2(OCO[C@@]25C[C@@H](OC)[C@@H]2C[C@@]3(O)[C@H]5[C@@H]2OC)[C@H]14,-5%
CCOC(=O)c1c(NC(=O)c2c(N)n(CCCOC)c3nc4ccccc4nc23)sc2c1CCCC2,-8%
CC(C)c1oc(=O)cc2c1[C@@H](O)[C@H]1OC(=O)[C@@]3(C)C[C@@H](O)[C@@H](O)[C@@]2(C)C13 (stereo not given in full),-13%
COc1ccc(OC(=O)N(C)C)c(CN(C)C)c1,0%
CC(=O)NC1CC2CCC(C1)N2 (stereo not given),-5%
Cc1ccc(-c2nc3ccccc3c(=O)n2-c2ccncc2)cc1,-9%
CCC(C)NC(=O)c1c(N)n(CC2CCCO2)c2nc3ccccc3nc12 (stereo not given),?
COc1ccc(Nc2ncc(C(=O)N3CCC4(CC3)OCCO4)c3ccccc23)cc1,22µM*
CC1O[C@@H](O[C@@H]2C(O)C[C@H](O[C@@H]3C(O)C[C@@H](OC4CC[C@@]5(C)C6CC[C@]7(C)C(C8=CC(=O)OC8)CC[C@@]7(O)C6CC[C@@H]5C4)OC3C)OC2C)CC(O)[C@H]1O (stereo not given in full),-12%
C[N+]1=Cc2cc3c(cc2CC1)OCO3,?
O=C(Nc1ccccc1)N1CC2(CCN(C(=O)Oc3ccccc3)CC2)C1,1%
O=C1NC(=O)C2(Cc3c(nc4ccccn4c3=O)N3CCCCCC32)C(=O)N1Cc1ccccc1 (stereo not given),-15%
O=C(c1ccncc1)N1CCC[C@@]2(CCN(Cc3nccs3)C2)C1,-17%
O=C(CN1CC=C(c2ccccc2)CC1)Nc1c(Cl)cccc1Cl,-8%
Cc1ccc(CCN2CC(C(=O)N3CCC4(CC3)OCCO4)CC2=O)cc1 (stereo not given),-11%
CCn1c(O)c(/C=N/NC(=O)c2ccncc2)c(=O)[nH]c1=S,?
CC(=O)CC(C)(C)n1c[n+](C)nn1,-8%
O=C(CN1CCN(CCO)CC1)Nc1ccc(Cl)cc1C(=O)c1ccccc1,-13%
C=CC=O,-7%
CCCCN1C(=O)C(C2c3ccccc3C(=O)N2Cc2ccccc2)C(=O)NC1=S (stereo not given),-17%
CCOP(=O)(OCC)C(NC(=O)c1ccc(Cl)cc1)=C(Cl)Cl,4%
CC(C)(C)C(=O)CP(=O)(O)O,-3%
O=C(CN1C2CCC1CC(O)(c1cccnc1)C2)Nc1ccc2c(c1)OCO2 (stereo not given),-7%
CC(C)c1cccc(C(C)C)c1O,?
O=C(Nc1ccc(OC(=O)N2CCCC2)cc1)N1CCOCC1,-9%
Cc1ccsc1-c1nc(CSCC(=O)N2CCC3(CC2)OCCO3)c(C)o1,?
CCCN1CCCC2Cc3[nH]ncc3CC21 (stereo not given),-6%
C[As+](C)(c1ccc(Br)c([N+](=O)[O-])c1)c1ccc(Br)c([N+](=O)[O-])c1.O=[N+]([O-])O,-2%
COc1ccc(CCNC(=O)c2c(N)n(CCN3CCOCC3)c3nc4ccccc4nc23)cc1OC,?
COP(=S)(OC)Oc1ccc(SC)c(C)c1,-11%&-4%
CC(N)Cc1ccccc1Sc1ccc(O)cc1 (stereo not given),-8%
CCCCc1nc2ccccc2c(=O)n1-c1ccccc1[N+](=O)[O-],-5%
C=Cn1c(P(=S)(N2CCOCC2)N2CCOCC2)cc2c1CCCC2,-21%
CNC(=O)OCCc1n(C)cc[n+]1C,-6%
COc1cc(Cn2c(N)c(C(=O)NCc3ccco3)c3nc4ccccc4nc32)cc(OC)c1OC,?
CCN(CC)c1ncnc2c1ncn2[C@@H]1O[C@H](COP(=O)(O)OP(=O)(O)C(Br)(Br)P(=O)(O)O)[C@@H](O)[C@H]1O,-5%
Nc1nc(N)c(N=Nc2ccc([As](=O)(O)O)cc2)c(=O)[nH]1,-1%
c1ccc(Nc2ccc(Nc3ccccc3)cc2)cc1,-22%
ClC(Cl)=C(c1ccc(Cl)cc1)c1ccc(Cl)cc1,-1%&-1%&-2%
CNC(=O)Oc1cccc2c1OC(C)(C)O2,-8%
CCN1CC=C(c2c[nH]c3ccccc23)CC1,-3%
NS(=O)(=O)c1ccc(N=Cc2c(O)n(C3CCCCC3)c(=O)n(C3CCCCC3)c2=O)cc1,?
N#Cc1ccccc1Cn1cc(C(=O)C2CC2)c2ccccc21,-12%
COc1cc(C(c2c(C)[nH]n(-c3ccccc3)c2=O)c2c(C)[nH]n(-c3ccccc3)c2=O)cc(OC)c1OC,-8%
c1ccc(-c2nc(N3CCOCC3)s[n+]2-c2ccccc2)cc1,10µM*
CC(=O)O/C(=C1/C[C@H]2[C@@H]3CC=C4C[C@@H](OC(C)=O)CC[C@]4(C)[C@@H]3CC[C@]2(C)C1=O)C(F)(F)F,-7%
O=C1CC(=O)N(c2cccc(Cl)c2)C(=O)N1,5%
COc1cccc(NC(=O)CN2CC(c3ccccc3)CC2=O)c1 (stereo not given),-11%
O=C(Nc1ccc2ccccc2c1)c1nn(C23CC4CC(CC(C4)C2)C3)cc1Br,?
COc1ccc([N+](=O)[O-])cc1N=Cc1c(O)n(CCc2ccccc2)c(=O)n(C(C)C)c1=O,-5%

# Carrying on.
SMILES,HPGD block
COc1ccc(N2C(=O)NC(=O)C(CCc3ccncc3)(CCc3ccncc3)C2=O)cc1,-4%
CCCCC(CC)COC(=O)c1ccccc1C(=O)OCC(CC)CCCC (stereo not given),-7%
CCOc1ccc(C2SCC(=O)Nc3c2c(=O)[nH]n3C2CCCCCC2)cc1 (stereo not given),-6%
COc1cc(/C=N/NC(=O)CN2CC(c3ccccc3)CC2=O)ccc1OC(=O)N(C)C (stereo not given),-15%
CCCCSP(=O)(SCCCC)SCCCC,-12%
Cc1c(C(c2ccccc2Cl)c2c(O)c3ccccc3oc2=O)c(=O)n(-c2ccccc2)n1C (stereo not given),-14%
Nc1c(C(=O)NCCCc2ccccc2)c2nc3ccccc3nc2n1Cc1cccs1,?
Nc1cccc(N=Cc2c(O)n(Cc3ccc(F)cc3)c(=O)[nH]c2=O)c1,-9%
S=C1NCCN1,-11%&-12%
FC(F)(F)c1cccc(-n2nnnc2C2(N3CCOCC3)CCCCC2)c1,-3%
O=C1CN=C(c2ccc(Br)cc2)c2oc3ccccc3c2N1,-6%
COc1c2c(c(CC=C(C)C)c3oc(=O)c(-c4ccc(O)cc4)c(O)c13)OC(C)(C)C=C2,-17%
O=c1[nH]c(=S)n(-c2ccc(Br)cc2)c(O)c1C=Nc1ccc(N2CCOCC2)cc1,-24%
CCOc1ccc(-n2c(O)c(C=Nc3ccc(N4CCOCC4)cc3)c(=O)[nH]c2=O)cc1,-9%
CC1CCCN(C(=O)CCl)C1 (stereo not given),-6%
COc1ccc(C2=NCC(=O)N(CC(=O)NCc3ccco3)c3sc4c(c32)CCCC4)cc1OC,?
O=C(CN1CCCCC1c1cccnc1)c1ccccc1 (stereo not given),?
Oc1c(Br)cc(Br)cc1CN1CCN(Cc2ccccc2)CC1,-7%
N#CC1=C(N)Oc2c(c(=O)oc3ccccc23)C1c1ccncc1 (stereo not given),-16%
CC1=C2C(=O)[C@@H]3[C@@H](CC=C4C[C@@H](O)CC[C@@]43C)[C@H]2CC[C@@]12O[C@H]1C[C@H](C)CN[C@H]1[C@@H]2C,-6%
COC(=O)N(c1ccc(OC)cc1)P1(=S)OCCC(C)O1 (stereo not given),4.5µM*
O=C1CC2OCC=C3CN4CC[C@]56c7ccccc7N1[C@H]5[C@H]2C3C[C@H]46 (stereo not given in full),2%
CCC(=NCc1ccco1)c1c(O)n(-c2ccc(OC)cc2)c(=O)[nH]c1=O,-2%
Nc1ccc(-c2ccc(N)cc2)cc1,-9%

# Retrieved one by one from above:
SMILES,HPGD block
COc1ccc(C2=NCC(=O)N(CC(=O)NCc3ccco3)c3sc4c(c32)CCCC4)cc1OC,?
O=C(CN1CCCCC1c1cccnc1)c1ccccc1 (stereo not given),?
N#CC1=C(N)Oc2c(c(=O)oc3ccccc23)C1c1ccncc1 (stereo not given),-16%
CCC(=NCc1ccco1)c1c(O)n(-c2ccc(OC)cc2)c(=O)[nH]c1=O,-2%
Nc1ccc(-c2ccc(N)cc2)cc1,-9%

# 3 compounds out of the list, arranged by heavy-atom count, high to low:
SMILES,HPGD block
CCOc1ccc(-n2c(O)c(C=Nc3ccc(N4CCOCC4)cc3)c(=O)[nH]c2=O)cc1,-9%
CC1=C2C(=O)[C@@H]3[C@@H](CC=C4C[C@@H](O)CC[C@@]43C)[C@H]2CC[C@@]12O[C@H]1C[C@H](C)CN[C@H]1[C@@H]2C,-6%
Oc1c(Br)cc(Br)cc1CN1CCN(Cc2ccccc2)CC1,-7%

# New compounds follow:
SMILES,HPGD block
CC1CCN(C(=O)c2ccc(N3CC4CC(C3)c3cccc(=O)n3C4)c([N+](=O)[O-])c2)CC1 (stereo not given),-19%
COC(=O)CC1(Cc2ccccc2)C(=O)NC(=O)NC1=O,-4%
NC12CN3CN(CN(C3)C1)C2 (tested in a mixture with another compound),-4%
CN1CCc2cc3c(cc2C1O)OCO3 (stereo not given),?
NC(=O)c1ccc(OCC(O)CN2CC=C(c3ccc(F)cc3)CC2)cc1 (stereo not given),-8%
C=C(C)Cn1c(=O)n(CC2CS2)c2ccccc21 (stereo not given),-10%
CC(=Nc1ccc2c(c1)CCC2)c1c(O)n(C2CCCCC2)c(=O)[nH]c1=O,-10%
CCNCC,-3%
Cc1ccc(S(=O)(=O)Cc2ccc(C(=O)N3CCC4(CC3)OCCO4)o2)cc1,1%
CN1C(=O)/C(=C/c2cccn2-c2ccc3ccccc3c2)C(=O)NC1=S,14µM*
CCN(CC)c1ccc(N=Cc2c(O)n(-c3cc(OC)ccc3OC)c(=O)[nH]c2=O)cc1,-2%
CC(=O)N1CCN(c2ccc(N=Cc3c(O)n(-c4ccc(Cl)cc4)c(=O)[nH]c3=O)cc2)CC1,-10%
Cn1c(=O)c2nncnc2n(C)c1=O,-12%
CN(C)c1cc(N)c2c(n1)CCC2 (tested in a mixture with another compound),?
O=C(O)[C@@H](Br)[C@H](Br)C(=O)O,-4%
CCN1C(=O)NC(=O)/C(=C/c2cc(C)n(-c3sc(C)c(C)c3C#N)c2C)C1=O,8.9µM*
C[N+]1(C)CCO[C@](O)(c2ccc(-c3ccc([C@]4(O)C[N+](C)(C)CCO4)cc3)cc2)C1,0%
Cc1[nH]ccc2c1[nH]c1cc(=O)ccc12,?
CCCN[C@@H]1CCc2c(OC)cccc2[C@@H]1C,-4%
O=C1C2CCN(CC2)[C@@H]1Cc1ccc2ccccc2c1O,-16%
CCCCC/C=C\C/C=C\CCCCCCCC(=O)NCCO,-2%
O=C(NC[P+](=O)O)OCc1ccccc1,2%
C(CCOCC1CO1)COCC1CO1 (stereo not given),-1%
O=C(C1CCCCC1)N1CCC(c2nc3c(nnn3Cc3c(F)cccc3Cl)c(=O)[nH]2)CC1,?

# Part of the list above in another layout.
SMILES	HPGD block
CCCCC/C=C\C/C=C\CCCCCCCC(=O)NCCO	-2%
O=C(NC[P+](=O)O)OCc1ccccc1	2%
C(CCOCC1CO1)COCC1CO1 (stereo not given)	-1%
O=C(C1CCCCC1)N1CCC(c2nc3c(nnn3Cc3c(F)cccc3Cl)c(=O)[nH]2)CC1	?

# Continuation.
SMILES,HPGD block
OC1(c2cccnc2)CC2CCC(C1)N2Cc1nnnn1Cc1ccccc1 (stereo not given),0%
Cn1c(O)c(/C=N/c2ccccn2)c(=O)n(C)c1=O,-26%
N#Cc1cccc(NC(=O)N2CCCC3(CCN(C(=O)Oc4ccccc4)CC3)C2)c1,0%
O=C(Cn1cnc2ccccc2c1=O)NCC(=O)N1CCC2(CC1)OCCO2,-8%
O=[N+]([O-])c1c(Cl)c(Cl)c(Cl)c(Cl)c1Cl,-7%
O=C(O)[C@H]1C[C@@H]1[C@H](NP(=O)(c1ccccc1)c1ccccc1)c1ccccc1,-4%&-10%
N#Cc1c(Cl)c(Cl)c(Cl)c(C#N)c1Cl,2.5µM*
CN1C2CCC1/C(=C/c1ccccn1)C(=O)/C2=C\c1ccccn1,-10%
Cc1cc(OCC(=O)OC(C)(C)C)c2c3c(c(=O)oc2c1)CCC3,?
CCOC(=O)[C@@]12C(=O)C(=O)N[C@]1(c1ccccc1)C1OCCCC12 (stereo not given in full),-8%
COc1ccccc1N=Cc1c(O)n(C)c(=O)n(C)c1=O,-28%
COc1ccc(CCNCc2ccncc2)cc1OC,-8%
CNC1C2CN3CCC(O2)C13 (stereo not given),-1%
CN1CCN(Cc2cc(C(C)(C)C)c(O)c(C(C)(C)C)c2)CC1,6%
Cc1cc(C)n2nc(SC(C)C(=O)N3CCC4(CC3)OCCO4)nc2n1 (stereo not given),-8%
N#Cc1cc2c(nc1SCC(=O)Nc1cc(Cl)ccc1Cl)C1CCN2CC1,-12%
CCC(C)n1c(O)c(/C=N/NC(=O)c2ccncc2)c(=O)[nH]c1=S (stereo not given),-15%
CN1CCN(Cc2nnc3n2-c2ccc(Cl)cc2C(c2ccccc2)=NC3)CC1,-20%
CC1CN(C)C(C)(C)CC1(O)c1ccccc1 (stereo not given),-9%

# A portion of the library; rates above refer to the full screens.
